# miR-21 reporter = miR-21 reporter, rising signal; Potency, µM (highest dose often 38.3 µM), for the others: at the highest dose reporter change, positive = more light; HeLa miR-21 FLuc reporter, luciferase, 48 h; 340,000 tested, under 10 active; active = well fitted rising curve with a large enough effect; inconclusive = small, poorly fitted or top-dose-only effect; inactive = no such curve, though single readings can be large or run the other way;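 further: % of control where 0% means no effect; miR-21 action dims this reporter so a rising signal means less miR-21 action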
#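 Compounds were titrated across several concentrations (up to approximately 40 uM) and incubated 48 hours with HeLa miR-21-FLuc reporter cells (miR-21 target sequence downstream of FLuc, endogenous miR-21). Readout was firefly luciferase luminescence after lytic detection reagent.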
# Rango release inh = prevents RanGTP from dissociating the Rango-importin beta complex | AID 540253 | O95149+P62826 | Biochemical FRET Rango-importin beta, RanGTP-induced dissociation | Potency, µM (doses to about 46.1 µM), without a hit: at the highest dose activity change, negative = inhibition | 0.071% of 340,000 active; active means falling FRET ratio curve, often poorly fitted, with flat reads before Ran was added; inconclusive means other falling curves, or compound fluorescence or quenching; inactive means flat or rising ratio curve;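 further: potency means the concentration at half of the fitted maximal effect; % of control where 0% means no effect; nearly all actives have a fitted effect of over 45% in size; -100% = wells without RanGTP and RCC1; the record marks most hits as doubtful in a second field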
#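 Rango FRET biosensor (snurportin-1 IBB flanked by N-terminal EYFP and C-terminal CFP10) at 0.1 uM, with 0.25 uM importin beta in PBS, 1mM DTT, 0.02% Tween-20, 0.1% BSA. 0.6 uM Ran, 2mM GTP and 0.2 uM RCC1 were then added for 45 min at room temperature. Inhibition read as loss of FRET rise.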
# Rango-impB inh = prevents formation of the Rango-importin beta complex; Potency, µM (doses to about 92.2 µM), without a hit: at the highest dose inhibition of complex formation; Q14974; Rango CFP/YFP FRET sensor + importin beta, 45 min; 0.031% of 340,000 active; AID 540263; active = rising FRET ratio curve, often small or poorly fitted; inconclusive = mostly compound fluorescence or quenching in the first reads; inactive = flat curves in all reads;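 further: potency means the concentration at half of the fitted maximal effect; 0% = DMSO wells and 100% = buffer wells lacking importin beta; nearly all actives have a fitted effect of over 15% in size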
#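 FRET biosensor Rango (snurportin 1 IBB between N-terminal EYFP and C-terminal Cerulean), 50 nM in PBS/1 mM DTT/0.02% Tween-20/0.1% BSA, preincubated 5 min RT with compound; 0.125 microM importin beta added, 45 min RT, CFP/YFP FRET ratio read.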
# GLA inh pH 4.5 = inhibitors of human alpha-galactosidase A at pH 4.5. purified enzyme, 4-MU-alpha-Gal fluorescence, pH 4.5. activity change, negative = inhibition, % at 105 µM. 230,000 tested, under 10 active. AID 1467; inconclusive = small, poorly fitted or top-dose-only inhibition, or a rising curve; inactive = flat fitted curve, though single readings scatter; no compound was filed as active;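 further: 0% = full activity with enzyme and -100% = basal without enzyme; dose as in the result columns while the protocol names 77 µM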
# Target sequence (P06280 whole entry, looked up): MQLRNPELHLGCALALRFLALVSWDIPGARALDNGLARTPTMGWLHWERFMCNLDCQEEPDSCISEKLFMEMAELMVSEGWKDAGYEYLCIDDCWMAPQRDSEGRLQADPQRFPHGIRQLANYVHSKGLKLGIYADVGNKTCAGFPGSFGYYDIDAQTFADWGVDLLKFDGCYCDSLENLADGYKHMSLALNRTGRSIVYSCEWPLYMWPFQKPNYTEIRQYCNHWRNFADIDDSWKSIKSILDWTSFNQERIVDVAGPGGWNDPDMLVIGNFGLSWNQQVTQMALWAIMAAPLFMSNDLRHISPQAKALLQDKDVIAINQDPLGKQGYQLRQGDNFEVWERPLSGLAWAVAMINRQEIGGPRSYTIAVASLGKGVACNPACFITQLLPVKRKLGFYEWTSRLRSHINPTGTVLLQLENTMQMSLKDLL
# The depositor's hits bear a star; ? = inconclusive; nt = not tested or not shown; & = joins results of further samples.
# Values run as follows: Rango-impB inh, miR-21 reporter, GLA inh pH 4.5, Rango release inh
> Cc1ccccc1N1CC(=O)N(c2ccccc2C)CC1=O
    2.1%, -0.5%, 2.1, 11.0%
> COc1ccc(OC)c(CNC(=O)CCCc2cn(C)c3ccccc23)c1
    -1.7%, -1.0%, 1.2, 12.6%
> Cc1ccc(S(=O)(=O)N(C)c2ccc(OCC(=O)N3CCCCC3)cc2)cc1
    -1.2%, 1.7%, nt, -8.1%
> COc1ccc(C(=O)/C=C/Nc2ccc(S(=O)(=O)Nc3onc(C)c3C)cc2)cc1
    ?, -58.1%, -10.2, ?
> c1ccc(-c2noc(-c3ccc4ccccc4c3)n2)nc1
    -0.5%, ?, -9.1, -0.1%
> CC(C)n1c(CSCc2ccc(Cl)cc2Cl)n[nH]c1=S
    -1.2%, 15.7%, -9.7, -8.1%
> CC1=C(c2ccc(F)cc2)[N+](=O)C(C)(C)N1[O-]
    2.8%, 15.5%, 1.5, 19.7%
> O=C(O)/C=C/C(=O)NCCNc1ncc(C(F)(F)F)cc1Cl
    0.4%, 3.0%, 2.0, -14.5%
> COc1cccc(C(=O)NCCS(=O)(=O)NCc2ccccn2)c1
    1.4%, nt, nt, 9.0%
> CCOC(=O)N1CCN(C(=O)C2CCC(CNS(=O)(=O)c3ccc(Cl)cc3)CC2)CC1 (stereo not given)
    -0.9%, 0.1%, -5.0, 6.0%
> CCOc1ccc(N(C(=O)/C=C/C(=O)Nc2cc(C)on2)C(C(=O)NC2CCCC2)c2ccccc2C)cc1 (stereo not given)
    5.4%, 6.5%, -25.8, 1.2%
> C/C(=N/NC(=O)c1ccccc1O)c1ccc(N2C(=O)C3CCCCC3C2=O)cc1 (stereo not given)
    0.1%, -30.4%, 4.8, 9.6%
> Cc1nn(CC(=O)N2CCN(c3ccccc3)CC2)c(=O)c2cccn12
    3.6%, 2.9%&-31.5%, nt, 1.5%
> COc1ccc(C(=O)N2CCCC(CCC(=O)NCc3ccc(F)c(F)c3)C2)o1 (stereo not given)
    3.1%, -33.3%, -6.0, -0.3%
> O=C1CCN(Cc2ccccc2)CCN1[C@H](CO)Cc1ccccc1
    0.1%, -1.5%, nt, -10.0%
> CC1CCN(C(=O)COc2cccc3c2CCN(C)C3=O)CC1
    -3.6%, -0.6%, -12.5, -4.9%
> CN1CCc2nc3ccc(Cl)cc3c(-c3ccccc3Cl)c2C1
    -2.7%, 14.7%, -7.1, 17.5%
> O=S(=O)(c1ccc(N2CCOCC2)c(Cl)c1)N1CCOCC1
    -0.2%, -1.5%, nt, -10.6%
> COc1ccc(CC(=O)Nc2ncc([N+](=O)[O-])s2)cc1OC
    -3.3%, 3.1%, -11.7, -11.4%
> CC(C)=NOc1nc(NC(=O)NS(=O)(=O)c2ccccc2Cl)nc(N(C)C)n1
    1.0%, nt, nt, -0.3%
> Cc1nn(CC(=O)N(C)Cc2ccc(F)cc2)c(C)c1[N+](=O)[O-]
    -3.0%, 2.2%, -20.8, 14.1%
> COC(=O)C1=CN(CC2CCCO2)C=C(C(=O)OC)C1c1ccccc1C(F)(F)F (stereo not given)
    ?, -4.6%, ?, ?
> CCS(=O)(=O)Nc1cccc(C2=NN(S(=O)(=O)c3ccc(F)cc3)C(c3cccs3)C2)c1 (stereo not given)
    ?, -0.7%, -18.7, -10.7%
> CC(CN1CCCCC1)OC(=O)C1c2ccccc2Oc2ccccc21 (stereo not given)
    -0.2%, -2.0%, -6.8, 0.3%
> O=S(=O)(c1ccccc1)c1nc(-c2ccco2)oc1NCc1ccco1
    3.6%, -1.1%, -2.1, -11.1%
> O=C(NCCCN1CCCC1)c1ccc2c(c1)N(Cc1cccc(Cl)c1)C(=O)c1ccccc1S2=O (stereo not given)
    4.5%, -11.3%, nt, -16.4%
> C[n+]1cc[nH]c1SCC(=O)c1ccc(Cl)cc1
    0.3%, -42.2%, 6.1, 5.6%
> Cc1nn(C)c(Oc2cccc(Cl)c2)c1C#N
    -2.9%, -1.0%, 4.0, 3.5%
> COc1cc(OC)cc(-c2cn[nH]c2N)c1
    2.1%, 2.8%, -6.6, -13.4%
> CCCN1C(=O)c2cc(C(=O)O)ccc2C1O (stereo not given)
    0.3%, -5.4%, -1.2, -5.1%
> O=C(NCc1ccccn1)c1cccc(S(=O)(=O)N2CCCCC2)c1
    0.3%, nt, nt, 11.8%
> O=C(/C=C\Nc1ccc2c(c1)OCO2)c1ccc(Cl)s1
    -0.9%, -67.1%, -3.8, -21.1%
> CN(Cc1ccccc1)c1ccc(S(=O)(=O)N2CCOCC2)cn1
    1.1%, -0.7%, -0.1, 19.5%
> COc1ccccc1C(C#N)c1cccc(Cl)n1 (stereo not given)
    -0.8%, -6.3%, nt, 8.5%
> Cc1ccccc1-n1c(C)nnc1SCc1nc2ccccc2s1
    -1.1%, -55.6%, 5.2, -13.8%
> CC(C)c1ccccc1OCCCN1CCCC1
    5.8%, -0.2%, nt, -18.7%
> CC(=O)n1cc(CO)c2ccccc21
    0.0%, 0.8%, nt, -4.6%
> Cn1c(CCNC(=O)c2ccccc2)nc2ccccc21
    -1.9%, -28.2%, 2.5, -4.7%
> COCCCN(C(=S)NC(=O)c1ccc(Br)cc1)c1c(N)n(Cc2ccccc2)c(=O)[nH]c1=O
    -0.2%, -8.8%, -5.9, 0.5%
> O=C(NC1CCCC1)c1ccccc1-c1nc2ccccc2[nH]1
    3.2%, -1.5%, -8.8, -15.3%
> CSCCCN1CCCC(CO)(Cc2ccccc2F)C1 (stereo not given)
    -1.5%, 0.1%, nt, -17.7%
> O=C(c1cccc(-n2cccc2)c1)N1CCN(S(=O)(=O)c2ccc(F)cc2)CC1
    -1.7%, -5.3%, nt, -5.2%
> COc1cccc(-c2ccc3nnc(SCC(=O)N4CCCC4)n3n2)c1
    -3.7%, nt, nt, 17.2%
> Cc1nc2sc(C(c3ccco3)N3CCN(c4ccc(F)cc4)CC3)c(O)n2n1 (stereo not given)
    4.6%, 0.0%, 4.9, 14.8%
> O=Cc1cccn1-c1ccc2ccccc2c1
    -0.2%, -28.6%, 3.8, 6.7%
> O=C(OCC(=O)N1CCc2ccccc21)C1CCCN1S(=O)(=O)c1ccc(Cl)cc1 (stereo not given)
    -4.2%, nt, nt, 28.3%
> COc1ccc(C(=S)N2CCN(c3ccccc3Cl)CC2)cc1OC
    -0.5%, -0.9%, -3.8, -7.6%
> O=C(CC12CC3CC(CC(C3)C1)C2)NCC(=O)OCc1cc(=O)oc2ccc3ccccc3c12
    2.5%, -0.2%, 18.9, -1.3%
> CN(C)CC1CCC/C(=C\c2ccc(OC(=O)c3ccc(Cl)cc3)cc2)C1=O (stereo not given)
    1.8%, nt, nt, -16.3%
> COc1cc(/C=C/c2ccc3cccc(OC)c3n2)c(OC(C)=O)c([N+](=O)[O-])c1
    2.8%, 17.2%, 1.1, -15.1%
> CC(C)n1nccc1NC(=O)Nc1ccccc1
    -1.6%, -2.8%, nt, 48.7%
> O=C(COC(=O)c1cccnc1Cl)Nc1ncc(Cl)cc1Cl
    -1.1%, 1.7%, -1.8, -5.2%
> COc1ccc(CN(C)CC(=O)Nc2cccc(S(N)(=O)=O)c2)c(OC)c1OC
    -2.7%, -9.8%, 6.2, 0.2%
> CCOC(=O)C(CCCCOc1ccc([N+](=O)[O-])cc1)C(=O)OCC
    -0.4%, 7.1%, 0.9, 1.8%
> Cc1nc(Nc2cccc(C(C)O)c2)c2nnn(Cc3ccc(F)cc3)c2n1 (stereo not given)
    -4.5%, 0.2%, -5.6, -1.6%
> CCn1cc(C(=O)NCCCOC)c(=O)c2cc(S(=O)(=O)N(C)C)ccc21
    5.7%, -4.3%, 2.8, 19.6%
> COc1ccc(S(=O)(=O)Nc2ccccn2)cc1C
    5.0%, -2.3%, -4.1, 3.6%
> O=C(N/N=C/c1ccc(Cl)cc1)C1CC12CCC2 (stereo not given)
    3.5%, -50.8%, 0.6, -14.6%
> CC1CCN(c2[nH]c(=S)c(C#N)c3c2CCCC3)CC1
    -2.2%, -13.7%, -5.0, -11.3%
> O=C(Cc1ccccc1)NCc1ccc2c(c1)OCO2
    -0.7%, -50.8%, -1.1, -6.0%

# Complete entries, quoted from the list.
# Shown for O=C(c1cccc(-n2cccc2)c1)N1CCN(S(=O)(=O)c2ccc(F)cc2)CC1 : Rango-impB inh = -1.7%; miR-21 reporter = -5.3%; GLA inh pH 4.5 = nt; Rango release inh = -5.2%
# Shown for COC(=O)C1=CN(CC2CCCO2)C=C(C(=O)OC)C1c1ccccc1C(F)(F)F (stereo not given) : Rango-impB inh = ?; miR-21 reporter = -4.6%; GLA inh pH 4.5 = ?; Rango release inh = ?

# Carrying on.
# Values run as follows: Rango-impB inh, miR-21 reporter, GLA inh pH 4.5, Rango release inh
> CC1Cc2nc(SCC(N)=O)n(C)c(=O)c2S1 (stereo not given)
    -1.0%, -11.0%, 1.7, -7.4%
> Cc1cccc(CN2CCN(c3nc4nonc4nc3NC3CC3)CC2)c1
    -0.8%, -1.6%, 1.3, -4.1%
> Cc1cc(C(=O)N/N=C/c2cccnc2)c(C)o1
    -0.2%, -8.3%, -4.1, -3.5%
> NC(=O)CC(NC(=O)Cc1ccc(Br)cc1)c1ccc(NCCN2CCCCC2)c([N+](=O)[O-])c1 (stereo not given)
    -5.5%, -4.5%, nt, 7.7%
> CCOC(=O)Cc1csc(NC(=O)c2cccs2)n1
    -0.5%, -31.1%, 5.5, -18.6%
> Cc1cc(=O)[nH]c(SCC(=O)NCCc2ccccc2)n1
    -2.2%, 1.7%, -7.6, 1.5%
> CC(C)(C)c1[nH]nc2c1C(C1C=CCCC1)C(C#N)=C(N)O2 (stereo not given)
    0.2%, 8.4%, -5.2, 28.5%
> Cc1ccccc1OCC(=O)NN1Cc2ccccc2C1=N
    -2.1%, -3.3%, 9.2, -7.6%
> Cc1csc(NC(=O)c2ccc(C)o2)n1
    -3.5%, -38.8%, -3.3, -26.9%
> COc1ccc(C(=O)N[C@H](C(=O)NCc2ccccc2)C(C)C)cc1
    0.8%, -0.2%, nt, 0.8%
> C(=C/c1ccnc2nc(SC/C=C/c3ccccc3)nn12)/c1ccccc1
    -0.4%, -3.2%, 1.1, -9.4%
> CC(=O)N1CCN(c2ccc(NC(=O)C(C)Oc3ccc(Cl)cc3Cl)cc2)CC1 (stereo not given)
    0.3%, -16.8%, -1.8, 6.3%
> COc1ccc(C(=O)O/N=C(\C)c2cnccn2)cc1
    ?, -1.7%, -1.7, 9.8%
> Cc1[nH]c(C)c2c(=O)n(Cc3ccccc3Cl)ncc12
    1.8%, nt, nt, 4.5%
> CC(NS(=O)(=O)c1c(N)n(C)c(=O)n(C)c1=O)c1ccccc1 (stereo not given)
    1.6%, -0.1%, nt, -13.7%
> COCCN(CCOC)C(=O)COC(=O)c1ccc(Cl)c(S(=O)(=O)N(C)c2ccccc2)c1
    0.0%, 0.8%, 7.1, 0.0%
> C=CCn1c(Oc2ccccc2)nc2c1c(=O)n(C)c(=O)n2C
    0.0%, 1.3%, 9.3, 0.8%
> Cc1cc(C)cc(OCC(=O)Nc2cccc(-c3nc4ncccc4o3)c2)c1
    3.4%, -3.6%, 0.2, -23.0%
> Cc1nc(-c2ccc(Cl)cc2)sc1C1(C)CC(c2ccccc2Br)=NO1 (stereo not given)
    -0.7%, nt, nt, -8.2%
> COc1ccc(NC(=O)c2cc(S(=O)(=O)N3CCCCC3)ccc2C)cc1S(=O)(=O)N1CCOCC1
    -0.1%, nt, nt, -20.2%
> O=[N+]([O-])c1ccc(/C=C/c2ccc3cccc(O)c3n2)cc1
    10.7%, -58.0%, nt, 0.2%
> O=C(NCc1cccnc1)C1CCCN(S(=O)(=O)c2ccc(Cl)cc2)C1 (stereo not given)
    -0.6%, -2.4%, 2.4, 1.1%
> Cc1cccc(/C=N/Nc2nncc3ccccc23)c1
    0.1%, -13.1%, 0.3, -7.9%
> O=S(=O)(NCc1ccco1)c1cnc(Cl)c(Br)c1
    0.0%, 6.2%, -5.4, 0.5%
> CN(CC(=O)Nc1ccc(F)cc1)C(=O)c1cc([N+](=O)[O-])ccc1N1CCOCC1
    4.7%, nt, nt, 14.6%

# Bioassay records as filed in PubChem BioAssay.

# Some of the compounds tested, so the mix of outcomes need not match the whole.
